# Bioassay records as filed in PubChem BioAssay.
# HIV Env fusion: inhibitors of HIV-1 Env-driven cell-cell fusion, primary screen, HeLa-JRFL effector, CEM21 target cells, luciferase. inhibition, % at 12.3 µM. 360,000 tested, 1.1% active;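 active = mean replicate inhibition score of at least 50 and every replicate individually at or above 50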;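 note: 0% = plate neutral controls and 100% = maraviroc near 300 nM; one replicate is shown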
# * marks the source's active call; other numbers are inactive results; & = joins results of further samples; [ ] = remark or other dose.
no.	smiles	HIV Env fusion
1	COc1ccc(CN(C)C[C@@H]2OCCCC[C@@H](C)Oc3ccc(NC(=O)C4CCCCC4)cc3C(=O)N([C@H](C)CO)C[C@@H]2C)cc1	-13.4[16.7 µM]
2	CCC(=O)Nc1ccc2c(c1)OC[C@H](C)N(CCc1ccccc1)C[C@@H](C)[C@H](OC)CN(C)C2=O	-11.8[16.7 µM]
3	Cc1cc(Nc2cc(C(F)(F)F)cc(C(F)(F)F)c2)cc(=O)n1-c1cc(C(F)(F)F)cc(C(F)(F)F)c1	31.1
4	CO[C@@H]1CN(C)C(=O)c2cc(NC(=O)Nc3c(C)noc3C)ccc2OC[C@@H](C)N(CCC(F)(F)F)C[C@H]1C	-9.2[16.7 µM]
5	O=C(C[C@H]1C[C@H]2c3cc(NS(=O)(=O)c4ccccc4)ccc3O[C@H]2[C@H](CO)O1)NCC(F)(F)F	-2.7[16.7 µM]
6	COC(=O)C[C@H]1CC[C@H]2[C@@H](COc3ccc(NC(=O)NCc4ccccc4)cc3C(=O)N2C)O1	13.0[16.7 µM]
7	O=C(C[C@H]1C[C@H]2c3cc(NC(=O)C4CCOCC4)ccc3O[C@H]2[C@H](CO)O1)NCc1cccnc1	-7.3[16.7 µM]
8	O=C(C[C@@H]1C[C@H]2c3cc(NS(=O)(=O)c4ccc(F)cc4)ccc3O[C@H]2[C@@H](CO)O1)NCc1cccnc1	-10.1[16.7 µM]
9	CO[C@@H]1CN(C)C(=O)c2cc(NS(=O)(=O)CC(F)(F)F)ccc2OC[C@@H](C)N(Cc2nccs2)C[C@@H]1C	-11.3[16.7 µM]
10	O=C(C[C@H]1CC[C@H](NC(=O)CC2CC2)[C@@H](CO)O1)NCc1ccc(Cl)cc1	1.8[16.7 µM]

no.	smiles	HIV Env fusion
11	CO[C@H]1CC[C@@H]2CCN(C)C(=O)[C@@H](C)[C@H](OC)CN(C)C(=O)c3cccc(C#N)c3OC[C@@H]1O2	9.4[16.7 µM]
12	CC(=O)NC(Cc1ccccc1C)C(=O)NC1CCN(c2c3c(nc4ncnn24)CCC3)CC1 (configuration not stated)	-11.2
13	CN1C(=O)c2cc(NC(=O)c3cccc(F)c3)ccc2OC[C@H]2O[C@@H](CC(=O)NCC3CCCCC3)CC[C@H]21	18.6&4.2[16.7 µM]
14	CCCNC(=O)N1C[C@H](C)[C@H](OC)CN(C)C(=O)c2ccc(NS(=O)(=O)CC(F)(F)F)cc2OC[C@H]1C	-2.2[16.7 µM]
15	COC(=O)N1C[C@H](Oc2ncccn2)[C@H]2C[C@@H]1c1ccccc1O2	8.4
16	CCCC(=O)Nc1ccc2c(c1)C(=O)N(C)C[C@H](OC)[C@@H](C)CN(C(=O)c1ccccn1)[C@@H](C)CO2	-20.9[16.7 µM]
17	CC(C)NC(=O)N[C@@H]1CC[C@H](CCNC(=O)C2CCCC2)O[C@@H]1CO	-6.6[16.7 µM]
18	CC(C)C[C@H](NC(=O)c1ccc(Cl)cc1Cl)C(=O)N1CCC[C@H]1C(=O)NCc1ccccc1	1.3
19	CC(C)NC(=O)Nc1ccc2c(c1)C(=O)N([C@H](C)CO)C[C@@H](C)[C@H](CN(C)Cc1ccccc1)OCCCC[C@H](C)O2	3.4[16.7 µM]
20	C[C@H](O)[C@@H]1C(=O)N2CCc3c([nH]c4ccccc34)[C@@H]2C[C@@H]1N(C)C(=O)OCc1ccccc1	-25.2

# By substructure: the entries above containing a Cl atom.
no.	smiles	HIV Env fusion
10	O=C(C[C@H]1CC[C@H](NC(=O)CC2CC2)[C@@H](CO)O1)NCc1ccc(Cl)cc1	1.8[16.7 µM]
18	CC(C)C[C@H](NC(=O)c1ccc(Cl)cc1Cl)C(=O)N1CCC[C@H]1C(=O)NCc1ccccc1	1.3

# The results go on.
no.	smiles	HIV Env fusion
21	CCCNC(=O)Nc1ccc2c(c1)C(=O)N(C)C[C@@H](OC)[C@@H](C)CN(C(=O)CC)[C@@H](C)CO2	-32.2[16.7 µM]
22	CSCCC(c1nc2ccccc2[nH]1)n1c(/C=C/c2ccc(Cl)cc2)nc2ccccc21 (configuration not stated)	-6.3
23	CC(C)NC(=O)Nc1ccc2c(c1)C(=O)N([C@@H](C)CO)C[C@H](C)[C@@H](CN(C)C(=O)CCC(F)(F)F)OCCCC[C@@H](C)O2	10.5[16.7 µM]
24	C[C@@H]1CN([C@H](C)CO)C(=O)c2c(c3ccccc3n2C)-c2ccccc2CO[C@H]1CN(C)C(=O)Nc1ccc(F)cc1	-2.6[16.7 µM]
25	COC(=O)C[C@@H]1C[C@H]2c3cc(N)ccc3O[C@H]2[C@@H](CO)O1	-18.3[16.7 µM]
26	CN(C)C(=O)c1cc2c(c(-c3cccc(C4=CCCC4)c3)n1)[C@H](CCO)N([S@@](=O)C(C)(C)C)C2	-8.9[16.7 µM]
27	CO[C@H]1CN(C)C(=O)c2ccc(NC(=O)Nc3cc(F)ccc3F)cc2OC[C@@H](C)N(C)C[C@@H]1C	-16.5[16.7 µM]
28	C[C@@H]1CN([C@@H](C)CO)C(=O)Cc2cc(NS(=O)(=O)c3ccc(F)cc3)ccc2O[C@H]1CN(C)Cc1ccc(Cl)c(Cl)c1	100.3*[16.7 µM]
29	Cc1ccc(S(=O)(=O)N[C@@H]2CC[C@H](CC(=O)N3CCc4ccccc4C3)O[C@@H]2CO)cc1	1.0[16.7 µM]
30	C[C@H]1CN([C@@H](C)CO)C(=O)Cc2cc(NS(=O)(=O)c3ccccc3)ccc2O[C@H]1CN(C)Cc1ccc(C(=O)O)cc1	-2.3[16.7 µM]

no.	smiles	HIV Env fusion
31	CC(C)OC(=O)N(C)C[C@H]1OCc2cn(nn2)CCCC(=O)N([C@H](C)CO)C[C@H]1C	1.2[16.7 µM]
32	Nc1[nH]c(C(=O)c2ccccc2)c(-c2cccc3ccccc23)c1C(=O)NCc1ccc(F)c(F)c1	1.2
33	O=C1CCCn2cc(nn2)COCC2CCCN12 (configuration not stated)	10.5[16.7 µM]
34	COC(=O)[C@]12C[C@H](CC(=O)NCCCCc3ccccc3)C(=O)N(Cc3ccccc3)C1=C[C@H](C1CCCC1)O[C@@H]2C	3.5
35	CC(C)(C)[S@](=O)N1Cc2cc(C(=O)NCCc3ccncc3)nc(-c3cccc(-c4cccnc4)c3)c2[C@@H]1CCO	41.3[16.7 µM]
36	CCC(=O)N1C[C@@H](C)[C@@H](OC)CN(C)C(=O)c2ccc(NC(=O)C3CCOCC3)cc2OC[C@H]1C	1.0[16.7 µM]
37	Cc1cccc(CN(C)C[C@H]2OCc3cnnn3CCCC(=O)N([C@H](C)CO)C[C@H]2C)c1	-18.1[16.7 µM]
38	C[C@@H]1CN([C@H](C)CO)C(=O)c2cc(NS(=O)(=O)c3cn(C)cn3)ccc2O[C@@H]1CN(C)S(=O)(=O)c1cn(C)cn1	7.9[16.7 µM]
39	CCS(=O)(=O)Nc1ccc2c(c1)C(=O)N(C)[C@@H]1CC[C@@H](CC(=O)NCc3ccccc3F)O[C@@H]1CO2	13.5[16.7 µM]
40	O=C(C[C@@H]1C[C@@H]2c3cc(NC(=O)C4CCC4)ccc3O[C@@H]2[C@@H](CO)O1)NCCc1ccccc1	24.6[16.7 µM]

# Records 1 to 3 of the list above:
no.	smiles	HIV Env fusion
1	COc1ccc(CN(C)C[C@@H]2OCCCC[C@@H](C)Oc3ccc(NC(=O)C4CCCCC4)cc3C(=O)N([C@H](C)CO)C[C@@H]2C)cc1	-13.4[16.7 µM]
2	CCC(=O)Nc1ccc2c(c1)OC[C@H](C)N(CCc1ccccc1)C[C@@H](C)[C@H](OC)CN(C)C2=O	-11.8[16.7 µM]
3	Cc1cc(Nc2cc(C(F)(F)F)cc(C(F)(F)F)c2)cc(=O)n1-c1cc(C(F)(F)F)cc(C(F)(F)F)c1	31.1

# Other compounds.
no.	smiles	HIV Env fusion
41	C=C1CC(/C=C/c2cc(OC)c(OC)c(OC)c2)OC1=O (configuration not stated)	14.7[16.7 µM]
42	Cc1ccc(C(=O)N2CCC[C@@H]2C(=O)N2CCC[C@@H]2C(=O)NCc2ccccc2)cc1C	-3.6
43	CCCN(C)C[C@H]1Oc2ncc(-c3ccccc3)cc2C(=O)N([C@@H](C)CO)C[C@@H]1C	6.9[16.7 µM]
44	CO[C@H]1CC[C@@H]2CCN(C)C(=O)[C@H](C)[C@H](OC)CN(C)C(=O)c3cccc(C#N)c3OC[C@H]1O2	5.8[16.7 µM]
45	CC(C)COC(=O)N(C)C[C@H]1OCc2ccccc2-c2c(n(C)c3ccccc23)C(=O)N([C@@H](C)CO)C[C@@H]1C	49.5[16.7 µM]
46	C[C@@H]1CCCCO[C@@H](CN(C)CC2CC2)[C@@H](C)CN([C@H](C)CO)C(=O)c2cc(NS(=O)(=O)c3cn(C)cn3)ccc2O1	2.3[16.7 µM]
47	C[C@@H](NC(=O)C[C@@H]1CC[C@@H]2[C@@H](COc3ccc(NS(=O)(=O)c4ccc(Cl)cc4)cc3C(=O)N2C)O1)c1ccccc1	-7.8[16.7 µM]
48	O=C(C[C@@H]1C[C@@H]2c3cc(NC(=O)NC4CCCC4)ccc3O[C@@H]2[C@H](CO)O1)NCc1ccccc1F	4.0[16.7 µM]
49	O=C(C[C@H]1C[C@H]2c3cc(NC(=O)c4ccc5c(c4)OCO5)ccc3O[C@H]2[C@H](CO)O1)NCc1cc(F)ccc1F	-10.8[16.7 µM]
50	CO[C@@H]1CN(C)C(=O)c2ccc(NC(=O)Nc3cc(F)ccc3F)cc2OC[C@@H](C)N(C(=O)c2cnccn2)C[C@H]1C	9.4[16.7 µM]

no.	smiles	HIV Env fusion
51	C[C@@H]1CCCCO[C@H](CN(C)CC2CCCCC2)[C@H](C)CN([C@@H](C)CO)C(=O)c2cc(NC(=O)c3ccncc3)ccc2O1	-7.5[16.7 µM]
52	COC(=O)N1C[C@H](Oc2cccc3ccccc23)[C@H]2C[C@@H]1c1ccccc1O2	8.1
53	Cc1ccccc1-c1ccc2c(c1)[C@@H]1C[C@H](N(C)CC3CCCCC3)[C@H]([C@H](C)O)CN1CC2	15.9
54	CN1CCN(C(=O)C[C@H]2C=C[C@@H](NC(=O)Nc3ccccc3F)[C@@H](CO)O2)CC1	-0.7[16.7 µM]
55	CN1CCN(C(=O)c2cc3c(c(-c4cccc(C#CCC5CCCC5)c4)n2)[C@H](CCO)N(S(=O)C(C)(C)C)C3)CC1 (some centres not stated)	1.7[16.7 µM]
56	CN(C)CCCNC(=O)C[C@H]1CC[C@@H]2[C@@H](COc3ccc(NS(C)(=O)=O)cc3C(=O)N2C)O1	-1.4[16.7 µM]
57	C[C@@H]1CN([C@H](C)CO)C(=O)c2cc(C3=CCCCC3)cnc2O[C@@H]1CN(C)S(C)(=O)=O	-4.4[16.7 µM]
58	COCCCNC(=O)[C@@H](Cc1ccccc1)NC(=O)[C@H]1O[C@@H](n2ccc(=O)[nH]c2=O)[C@H](O)[C@@H]1O	1.8
59	CO[C@H]1CN(C)C(=O)c2cc(NC(=O)c3ccccc3F)ccc2OC[C@@H](C)N(C(C)=O)C[C@@H]1C	10.5[16.7 µM]
60	CO[C@@H]1CN(C)C(=O)c2cc(NS(=O)(=O)c3cn(C)cn3)ccc2OC[C@@H](C)N(CC2CC2)C[C@@H]1C	47.4[16.7 µM]

no.	smiles	HIV Env fusion
61	CO[C@@H](CN(C)S(=O)(=O)c1ccc(F)cc1)[C@H](C)CN(C(=O)Nc1ccccc1F)[C@H](C)CO	12.6[16.7 µM]
62	CC(=O)OC[C@H]1O[C@H](C#Cc2ccc(C(C)(C)C)cc2)C=C[C@H]1OC(=O)Nc1ccccc1	-3.0
63	Cc1noc(C)c1NC(=O)NC[C@@H]1CC[C@@H]2[C@@H](CN2Cc2cccc(-c3ccccn3)c2)O1	-60.8[16.7 µM]
64	COc1ccc2c3c(n(C)c2c1)[C@@H](CO)N(C(=O)Nc1cccc(F)c1)CC31CCN(Cc2nccs2)CC1	23.1[16.7 µM]
65	C[C@@H]1CCCCO[C@@H](CN(C)C(=O)Nc2ccccc2)[C@H](C)CN([C@H](C)CO)C(=O)c2cc(N(C)C)ccc2O1	-22.6[16.7 µM]
66	O=C(N[C@@H]1C=C[C@H](CC(=O)N2CCN(c3ccccc3)CC2)O[C@H]1CO)c1ccncc1	3.8[16.7 µM]
67	CN(C)C(=O)[C@@H]1[C@@H](CO)[C@@H]2Cn3c(ccc(-c4ccccc4)c3=O)[C@H]1N2C(=O)C1CCC1	12.5[16.7 µM]
68	CO[C@H]1CN(C)C(=O)c2cc(NC(=O)C3CC3)ccc2OC[C@H](C)N(C(=O)C2CCOCC2)C[C@@H]1C	-0.4[16.7 µM]
69	Cc1cc(NCCc2c[nH]c3ccccc23)ccc1Oc1cccnc1	-13.4
70	O=C1CCCC2=C1[C@@]1(O[C@H]3C=CC=CN23)C(=O)N(c2ccccc2)c2ccccc21	-10.3

no.	smiles	HIV Env fusion
71	Nc1ncnc2c1ncn2[C@@H]1O[C@H](C(=O)N[C@@H](CCc2ccccc2)C(=O)N2CCN(CC(=O)N3CCCC3)CC2)[C@@H](O)[C@H]1O	4.3
72	COc1cccc(S(=O)(=O)N2CCC3(CC2)CN(C(=O)Nc2cccc(F)c2)[C@@H](CO)c2[nH]c4cc(OC)ccc4c23)c1	72.4*[16.7 µM]
73	C[C@H]1CN([C@@H](C)CO)C(=O)c2cccc(NS(C)(=O)=O)c2O[C@@H]1CN(C)C(=O)Nc1cccc2ccccc12	10.4[16.7 µM]
74	O=Nc1ccc(Br)cn1	18.9
75	CC(=O)N(C)C[C@@H]1OCc2ccccc2-c2ccccc2C(=O)N([C@@H](C)CO)C[C@H]1C	-6.7[16.7 µM]
76	COC(=O)[C@H]1[C@H](CO)[C@H]2Cn3c(ccc(-c4ccc(F)cc4)c3=O)[C@H]2N1C(=O)C1CCC1	27.8[16.7 µM]
77	CCn1cc(CCC(=O)Nc2ccc(Oc3cccnc3)cc2)c2ccccc21	-10.0
78	COc1ccc(NC(=O)N(C)C[C@@H]2Oc3ccc(NS(=O)(=O)c4ccccc4)cc3CC(=O)N([C@H](C)CO)C[C@@H]2C)cc1	-12.7[16.7 µM]
79	O=C(C[C@@H]1C[C@@H]2c3cc(NC(=O)c4ccc5c(c4)OCO5)ccc3O[C@@H]2[C@@H](CO)O1)NCCc1ccccc1	-0.5[16.7 µM]
80	O=C(C[C@@H]1CC[C@@H]2NC[C@@H](O)COC[C@H]2O1)N1CCc2ccccc2C1	-10.6[16.7 µM]

# These rows are one share of the data; count on the stated rates, not on these rows.
